HCMV NEC inh: disrupts HCMV UL50-UL53 complex binding; AID 1918969; HTRF UL50-UL53 interaction, normalized percent inhibition; hit rate 0.15% among 190,000; inhibition, % (no concentration beside the values);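 active = both replicates at 50% or more, plus weaker picks with an unusually low signal ratio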;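 note: stock transfer was 100 nL into about 20 µL; 0% = negative control wells and 100% = wells with untagged competitor protein; inactives centre near -12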
GIV-Gai inh: blocks GIV peptide binding to rat Galpha-i3; P08753; hit rate 0.42% among 210,000; Galpha-i3/FITC-GIV peptide fluorescence polarization, 90 min; active compounds read low; scaled: aluminum fluoride 0%, vehicle 100%; percent of control (FP), % (concentration not given with the values);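 active = replicate mean at 85% of control or lower, very high polarization wells dropped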;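 note: wells of about 15 µL received 100 nL stock; the first replicate is given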
Target sequence (P08753 whole entry, looked up): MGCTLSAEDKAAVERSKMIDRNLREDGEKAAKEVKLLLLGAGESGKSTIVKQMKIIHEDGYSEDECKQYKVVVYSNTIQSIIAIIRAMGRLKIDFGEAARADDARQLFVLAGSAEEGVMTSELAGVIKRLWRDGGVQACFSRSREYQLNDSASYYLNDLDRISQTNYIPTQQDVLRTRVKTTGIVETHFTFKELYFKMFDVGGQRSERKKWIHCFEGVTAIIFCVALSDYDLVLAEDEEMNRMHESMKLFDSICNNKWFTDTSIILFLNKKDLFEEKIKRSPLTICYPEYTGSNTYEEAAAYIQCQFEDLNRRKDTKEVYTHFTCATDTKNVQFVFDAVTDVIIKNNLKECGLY
Sa growth inh: S. aureus growth inhibition | relative growth, % (no concentration beside the values) | hit rate 0.53% among 170,000 | S. aureus RN4220 growth, OD600, 20 h, 42 °C; active compounds read low | AID 720641;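 active = growth at 42 °C up to 50% and 20 or more points under that at 30 °C, or under 10% at both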;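 note: 300 nL library stock went into each well; scaled to the means of positive and negative controls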
Sa growth inh second temp: second read-out of Sa growth inh, no call of its own (marks repeat the call); relative growth, %; measured here: growth at 30 °C;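 optical density after 20 h as mean of two plates; 100% = untreated growth and lower means inhibition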
Active calls of the source: *; nt = not tested or not shown; & = joins results of further samples.

mol,HCMV NEC inh,GIV-Gai inh,Sa growth inh,Sa growth inh second temp
CN1C(=O)/C(=C2\SC(N3CCCCCC3)=NC2=O)c2ccccc21,-18,103,111,90
COC(=S)Nc1ccc(F)cc1,-2,100,91,83
Cc1cccc(N2CCN(C(=O)c3nn(C)c4c3CS(=O)(=O)c3ccccc3-4)CC2C)c1 (stereo not given),-21,99,117,93
CCOC(=O)c1cnc(SCc2ccc(C)cc2)nc1C(F)(F)F,-9,106,104,99
Cc1ccc(C)c(Cn2c(=O)c3c(nc4n3CCN4c3ccccc3)n(C)c2=O)c1,nt,109,89,91
COc1cccc(-n2c(C)nc3c(cnn3-c3ccc(Cl)cc3)c2=O)c1,nt,103,91,87
COc1cccc(NC(=O)CNCC(O)c2ccccc2)c1 (stereo not given),-30,nt,72,86
NC(=O)COC(=O)c1ccc(O)cc1,-20,nt,99,96
CCOc1ccc(-c2cc3c(SC(C)C)nccn3n2)cc1,-8,98,nt,nt
CC(=O)N1CCOc2cc(S(=O)(=O)N(C)Cc3ccccc3)ccc21,nt,106,107,81
CCCC1=NN(C(=O)c2ccc(C(C)(C)C)cc2)C(O)(C(F)(F)F)C1 (stereo not given),16,107,nt,nt
C/C(=N/O)C12CCCC(CCC1)C2,-23,97,99,94
NS(=O)(=O)c1ccc(C23CC4CC(CC(C4)C2)C3)cc1,nt,102,73,75
CC(=O)NC(CC(=O)Nc1ccc2c(c1)OCCO2)c1ccccc1 (stereo not given),-28,nt,90,84
CCN(CC)c1ccc2nc3c(nc2c1)C(=O)c1ccccc1C3=O,64*,107,61,29
CCCCN1CN=C(Nc2nc(C)c3cc(OCC)ccc3n2)NC1,-19,96,nt,nt
CCN(CC(=O)Nc1ccccc1N1CCOCC1)CC(=O)NC1CCS(=O)(=O)C1 (stereo not given),-35,nt,107,98
COc1cccc(C(=O)NCCS(=O)(=O)NC2CCCC2)c1,-14,100,89,90
CCOC(=O)c1cc(-c2ccc(OC)c(S(=O)(=O)NC3CCCc4ccccc43)c2)on1 (stereo not given),-29,106,98,84
CCc1ccccc1NCc1c(CO)cnc(C)c1O,nt,98,92,87
Cc1c2cnn(CC(=O)N3CCN(c4ccccc4)CC3)c(=O)c2c(C)n1Cc1ccc(F)cc1,-4,110,115,91
O=C(c1cc(-c2ccc(Br)cc2)nc2ccccc12)N1CCOCC1,-20,103,nt,nt
COc1cc2nc(=S)n3c(c2cc1OC)NC(CCC(=O)NCCc1ccc(Cl)cc1)C3=O (stereo not given),nt,110,126,96
COC(=O)c1nnn(CC(=O)N(Cc2ccccc2)c2ccc(Br)cc2)c1C(=O)OC,nt,106,92,69
CCOC(=O)c1c(C)n(-c2ccccc2)c2c1cc(OC(=O)C(C)C)c1ccccc12,-17,105,nt,nt
Cc1onc(-c2ccccc2)c1C(=O)OCCN1C(=O)c2ccccc2C1=O,-26,nt,78,94
N[C@H](C(=O)O)c1cc(O)cc(O)c1,-2&-1,109,nt,nt
COc1ccc(NC(=O)C(CCS(C)(=O)=O)N2Cc3ccccc3C2=O)c(OC)c1 (stereo not given),2,101,99,87
CCOC(=O)c1c(C)[nH]c(NC(=O)Nc2ccc(F)cc2)c1C,-20,97,nt,nt
O=C(NCCC1=CCCCC1)c1c(-c2ccccc2)nc2n1CCS2(=O)=O,-9,100,nt,nt
Cc1cc(=O)oc2cc(OC(C)C(=O)NC3(C#N)CCCCC3)ccc12 (stereo not given),7,nt,86,91
CN(C)S(=O)(=O)c1ccc(C(=O)NC2CC(=O)N(c3ccc4c(c3)OCCO4)C2)cc1 (stereo not given),nt,101,103,84
O=C(NCCCn1c(-c2ccncc2)nc2cccnc21)Nc1ccccc1Br,-4,109,nt,nt
O=C(CSc1nc2ccccc2c(=O)n1CCO)Nc1ccccc1C(=O)Nc1ccccc1,-6,nt,88,92
COC(=O)CN1C(=O)COc2cc(S(=O)(=O)N3CCCc4ccccc43)ccc21,nt,103,101,80
CC(=O)O[C@H]1[C@H](OC(C)=O)[C@H](OC(C)=O)CO[C@@H]1c1nc2ccccc2s1,-21,101,84,88
Cc1c(C)c2c(=O)n(-c3ccccc3)[nH]c2[nH]c1=O,-12,108,87,88
CN(C)c1ccc(C2OC(=O)C(C)(C)C(=O)C2(C)C)cc1 (stereo not given),-6,nt,106,87
Cc1ccc2n1CCN(c1nc(-c3ccc(Cl)cc3)cs1)C2C (stereo not given),5,103,67,75
Cc1ccc(Sc2c(C(=O)NCc3cccc(F)c3)[nH]c3ccccc23)cc1,-8,102,111,86

Another view of 3 compounds above.
SMILES: Cc1ccc(C)c(Cn2c(=O)c3c(nc4n3CCN4c3ccccc3)n(C)c2=O)c1
  HCMV NEC inh = nt
  GIV-Gai inh = 109
  Sa growth inh = 89
  Sa growth inh second temp = 91

SMILES: NC(=O)COC(=O)c1ccc(O)cc1
  HCMV NEC inh = -20
  GIV-Gai inh = nt
  Sa growth inh = 99
  Sa growth inh second temp = 96

SMILES: CCOC(=O)c1c(C)n(-c2ccccc2)c2c1cc(OC(=O)C(C)C)c1ccccc12
  HCMV NEC inh = -17
  GIV-Gai inh = 105
  Sa growth inh = nt
  Sa growth inh second temp = nt

Next section
mol,HCMV NEC inh,GIV-Gai inh,Sa growth inh,Sa growth inh second temp
CC1(C)CC(=O)C2=C(C1)NC1=C(C(=O)CC(C)(C)C1)C2c1ccccc1C(F)(F)F,-18,nt,87,90
COc1ccc(-c2nnc(SCc3ccc(Br)cc3)o2)cc1,-29,102,nt,nt
CC1CCCN(C(=O)Cn2c3ccccc3c3nc4n(c(=O)c32)CCS4)C1 (stereo not given),-34,104,82,82
CN1C(=O)/C(=C/c2ccc(C(=O)NCC(=O)O)cc2)SC1=S,-98,103,92,100
CCn1cc2c(n1)-c1c(oc(C(=O)Nc3ccc(Cl)cc3)c1C)CC2,nt,81*,75,36
Cc1ccc(C)c(NC(=O)CN(C)S(=O)(=O)c2cccc3nsnc23)c1,-84,106,117,92
Cc1cc(C(=O)COC(=O)C23CC4CC(CC(O)(C4)C2)C3)c(C)n1C1CC1,-25,nt,89,93
Cc1ccc(CNC(=O)CCN2C(=O)COc3ccc(C)cc32)cc1,-18,109,98,97
Cc1noc(C)c1S(=O)(=O)NC(C)(C)C,-1,102,108,96
CC(C)NC(=O)C1CCC(Cn2c(=O)c3sccc3n(CC(=O)N3CCCC3)c2=O)CC1 (stereo not given),nt,96,71,90
COc1cc(NC(=O)NCCc2nc3cccnc3n2-c2ccccc2)cc(OC)c1,6,114,nt,nt
COC(=O)c1c2c(nc3ccccc13)CCN(C(=O)Nc1cc(Cl)ccc1OC)C2,-26,104,nt,nt
Cc1ccc2c(c1)c(=O)c1ccccc1n2CCCC(=O)Nc1ccc(Cl)c(Cl)c1,-41,106,94,86
Cc1ccc(-c2cc(C(=O)NCC3CCCO3)c3ccccc3n2)c(C)c1 (stereo not given),-30,104,nt,nt
Nc1c(S(=O)(=O)c2ccccc2)c2nc3ccccc3nc2n1CCNC(=O)c1cccs1,-10,nt,93,84
CC(C)Cn1cnc2nc(CSc3ccccc3NC(=O)Nc3cccc(F)c3)cc(=O)n21,-15,102,nt,nt
Cc1ccc(C(C)n2cc(C(=O)NCc3ccccn3)nn2)cc1 (stereo not given),-16,nt,98,86
CCOC(=O)c1c(NC(=O)CCCOc2ccc(C(C)(C)C)cc2)sc2c1CCCC2,-16,103,98,97
CCC(C(=O)NC1CCC(C)CC1)n1sc2ccccc2c1=O (stereo not given),12,100,119,98
CC1CCCN(C(=O)Cn2c(=O)oc3cc(S(=O)(=O)N4CCCCC4)ccc32)C1 (stereo not given),-27,102,91,83
Cc1cc(C)n2c(Nc3c(C)cccc3C)c(-c3ccsc3)nc2n1,-7,106,99,93
Cc1cccc2c1-c1sc(C(=O)NCCCN3CCC(Cc4ccccc4)CC3)cc1CO2,-63,99,nt,nt
Cc1ccc(SCC(=O)c2ccc(Cl)cc2)cc1,-20,107,nt,nt
CCOc1cccc(CC(=O)NCc2ccc3c(c2)CCN3C(=O)c2ccc(F)cc2)c1OCC,nt,101,110,89
O=C(OCC(=O)N1CCOCC1)c1ccc2ccccc2c1,-45,nt,95,93
Cc1ccc(S(=O)(=O)c2c[nH]c(=O)[nH]2)cc1,-10,nt,96,89
O=C(/C=C/c1ccccc1)NCCc1nc2ccccc2[nH]1,nt,107,80,72
COc1ccc(CCN2CNc3c(c(=O)n(C)c(=O)n3C)C2)cc1OC,-8,99,nt,nt
COC(=O)c1c(-c2c(Cl)cccc2Cl)noc1C(=O)NN,-40,100,90,76
CN(C(=O)c1cccc(OC(F)F)c1)C1CCCCC1,-18,nt,84,90
COC(=O)CC1Oc2ccc(Cl)cc2-n2cc(-c3ccccc3)nc21 (stereo not given),-14,101,98,104
Cc1cccc2sc(N(CCN(C)C)C(=O)c3ccc4c(c3)OCCO4)nc12,nt,107,98,96
CC1(C)CC(=O)/C(=C/c2ccccc2)C(C)(C)N1,nt,101,95,88
CC(C(=O)Nc1ccccc1)C(=O)Nc1ccccc1,-10,nt,108,87
CCN(CC)S(=O)(=O)c1ccc(-c2nnc(SCC(=O)Nc3nc4ccccc4s3)o2)cc1,-18,101,96,106
CCOC(=O)C1CCCN(C(=O)c2cc3c(C)nc4ccccc4c3o2)C1 (stereo not given),nt,104,119,91
CC1=C(C(=O)N(CC2CC=CCC2)CC2CCCO2)C2(CCCCC2)OC1=O (stereo not given),nt,94,87,89
COC(=O)c1sccc1NC(=S)N1CC(C)CC(C)C1 (stereo not given),nt,100,115,103
O=C(Cn1c(=O)oc2ccccc21)Nc1cccnc1,-23,101,98,94
CCn1c(NCCCO)nc2ccccc21,-12,94,110,96
O=C1CCCc2cc(S(=O)(=O)NCc3cccnc3)ccc2N1,-2&-12,100&110,98,94
Cc1cc(C)nc(Nc2ccc(S(N)(=O)=O)cc2)n1,1,112,105,86
c1ccc(-c2c(-c3ccccc3)n(Cc3ccco3)c3ncnc(NCCCn4ccnc4)c23)cc1,-32,103,0.1*,0.2*
CCOc1ccc(NC(=O)N2CCC(CN3CCOCC3)CC2)cc1,nt,104,106,85
CCCCC1CCC(C(=O)Oc2cccc(-n3cnnn3)c2)CC1 (stereo not given),-26,108,nt,nt
O=C([C@@H]1CCCN1S(=O)(=O)c1ccc(Cl)cc1)N1CCN(c2ccccc2)CC1,-12,nt,95,80
CCOC(=O)c1cc2n(n1)CC(C)(C(=O)NC1CCCCC1)N(Cc1cccc(C)c1)C2=O (stereo not given),-25,103,nt,nt
CCOC(=O)c1ccccc1NC(=O)CN1CCCN(Cc2cccc(Cl)c2)S1(=O)=O,nt,100,81,84
O=C(CO)Nc1cc(Cl)ccc1Cl,16,nt,106,99
Cc1cccc(N2CCN(c3ncnc4onc(C)c34)CC2C)c1 (stereo not given),nt,99,77,93
CC1(C)CC(=O)/C(=C(\O)Cc2ccccc2)C(=NCc2ccccc2)C1,-24,nt,100,87
COCC(=O)n1nc(-c2ccco2)nc1NCc1ccccc1,-14,98,90,74
C=CCn1c(=O)c2c(nc3n2CCN3c2ccc(F)cc2)n(C)c1=O,nt,101,112,85
O=C(Oc1cccc(NC(=O)c2cccs2)c1)c1cccc(S(=O)(=O)N2CCOCC2)c1,-15,nt,93,75
CCOc1ccc(NC(=O)c2ccc(-c3nc(COc4ccccc4)c(C)o3)cc2)cc1,nt,100,91,86
Clc1ccc(-c2cnc3n2CCCCC3)cc1,4,nt,102,89

As a working copy, 4 of the compounds above:
mol,HCMV NEC inh,GIV-Gai inh,Sa growth inh,Sa growth inh second temp
CN1C(=O)/C(=C2\SC(N3CCCCCC3)=NC2=O)c2ccccc21,-18,103,111,90
COC(=S)Nc1ccc(F)cc1,-2,100,91,83
Cc1cccc(N2CCN(C(=O)c3nn(C)c4c3CS(=O)(=O)c3ccccc3-4)CC2C)c1 (stereo not given),-21,99,117,93
CCOC(=O)c1cnc(SCc2ccc(C)cc2)nc1C(F)(F)F,-9,106,104,99

New compounds follow
mol,HCMV NEC inh,GIV-Gai inh,Sa growth inh,Sa growth inh second temp
CCOc1ccc(-n2cc(-c3ccccc3)c3c(NC4CCCCC4)ncnc32)cc1,nt,99,111,95
CN(C)c1ccc(C2NCCS2)cc1 (stereo not given),-34,104,124,100
Cc1ccc(-n2nc3c(=O)n(CC(=O)NCC(C)c4ccccc4)nc(C)c3c2C)cc1 (stereo not given),nt,99,99,91
O=C(COc1ccc(-c2nnco2)cc1)N(CCc1ccccc1)Cc1ccccc1,-3,nt,108,80
CCn1nc(C(=O)n2cc(C(=O)c3ccccc3O)cn2)c2ccccc2c1=O,11,nt,100,95
COc1ccc(CNC(=O)c2ccc3nc(C(C)C)oc3c2)cc1OC,nt,104,95,89
CCC(=O)Nc1nc2ccc(CC(=O)N3CCN(c4ccccn4)CC3)cc2s1,-27,100,nt,nt
